From PubChem BioAssay
ID4 binder: binders of human ID4 protein | 1.2% of 31,000 active | calls only | small molecule microarray, Flag-ID4 binding, fluorescence F/B | P47928 | AID 624137;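 active means spot signal over background at p below 0.07 in all four prints; compounds were printed on slides so no solution concentration is given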;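 further: a binder raises fluorescence above local background on the spot; about 2 pmol printed per array spot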
Target sequence (P47928 whole entry, looked up): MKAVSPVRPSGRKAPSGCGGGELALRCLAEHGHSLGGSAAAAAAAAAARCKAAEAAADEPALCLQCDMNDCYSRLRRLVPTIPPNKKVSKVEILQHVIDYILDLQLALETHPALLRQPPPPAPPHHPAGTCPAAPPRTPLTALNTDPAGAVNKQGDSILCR
c-Myc SMM: c-Myc (human) binding. P01106. small molecule microarray, His-c-Myc binding, anti-His fluorescence. calls only. 1.5% of 17,000 active. AID 624141;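 active means spot fluorescence over background with P-value below 7% in all four replicate spots, showing protein binding; compounds were printed on slides so no solution concentration is given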;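 further: score is binary with 100 for all four spots passing and 0 otherwise; about 2 pmol printed per array spot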
STAT3 SMM: binders of human STAT3; Small molecule microarray, His-STAT3 binding, anti-His fluorescence; calls only; 0.2% of 17,000 active; P40763;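 active means compounds whose four printed spots each show fluorescence over background unusually high for their array block, chance value under 7%; compounds were printed on slides so no solution concentration is given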;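 further: about 2 pmol printed per array spot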
Target sequence (P40763 whole entry, looked up): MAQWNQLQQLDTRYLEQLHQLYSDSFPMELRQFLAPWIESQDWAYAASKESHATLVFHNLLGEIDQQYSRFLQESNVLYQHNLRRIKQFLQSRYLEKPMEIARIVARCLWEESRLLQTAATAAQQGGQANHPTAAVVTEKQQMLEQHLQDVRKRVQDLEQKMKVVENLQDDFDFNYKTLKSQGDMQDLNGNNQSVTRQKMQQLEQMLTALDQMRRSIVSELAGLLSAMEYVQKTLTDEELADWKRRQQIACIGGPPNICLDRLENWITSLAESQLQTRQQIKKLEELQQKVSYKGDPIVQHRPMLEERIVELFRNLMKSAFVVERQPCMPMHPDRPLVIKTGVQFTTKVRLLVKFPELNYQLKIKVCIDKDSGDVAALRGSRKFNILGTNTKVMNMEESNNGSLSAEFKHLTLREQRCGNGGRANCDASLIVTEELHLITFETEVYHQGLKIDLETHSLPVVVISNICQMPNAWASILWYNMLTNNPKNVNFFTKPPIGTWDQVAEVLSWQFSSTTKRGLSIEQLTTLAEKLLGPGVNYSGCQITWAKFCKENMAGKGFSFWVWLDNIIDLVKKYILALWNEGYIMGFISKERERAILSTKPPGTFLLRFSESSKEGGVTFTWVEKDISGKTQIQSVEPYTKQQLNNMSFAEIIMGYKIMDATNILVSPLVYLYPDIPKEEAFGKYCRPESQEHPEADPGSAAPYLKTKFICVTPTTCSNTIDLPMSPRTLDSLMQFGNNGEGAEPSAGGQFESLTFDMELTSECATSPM
p53 mut binder: mutant p53 (human) binding. calls only. AID 624136. small molecule microarray binding, anti-GST fluorescence. 0.4% of 17,000 active;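 active means compounds whose four printed spots each glow above background more than chance allows, each with a p-value under 7%; compounds were printed on slides so no solution concentration is given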;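 further: about 2 pmol printed per array spot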
Calls only; i = inactive; / = not tested or not shown; + = active, no number.

SMILES	ID4 binder	c-Myc SMM	STAT3 SMM	p53 mut binder
C[C@@H]1CN([C@H](C)CO)C(=O)c2cc(NC(=O)Nc3ccc4c(c3)OCO4)ccc2O[C@H]1CN(C)S(=O)(=O)c1cn(C)cn1	i	i	i	i
Cc1noc(C)c1NC(=O)N(C)C[C@H]1Oc2ccc(NC(=O)CCC(F)(F)F)cc2CC(=O)N([C@H](C)CO)C[C@H]1C	i	i	i	i
COc1ccc(S(=O)(=O)N(C)C[C@H]2Oc3ccc(NS(C)(=O)=O)cc3CC(=O)N([C@H](C)CO)C[C@@H]2C)cc1	i	i	i	i
C=CC(C)(O)CC/C=C(\C)C(=O)OC1C2OC2(C)C2C(OC3OC(COC4OC(CO)C(O)C(O)C4O)C(O)C(O)C3O)OC=CC12O (stereo not drawn)	i	i	i	i
C[C@H]1CN([C@@H](C)CO)C(=O)Cc2cc(NC(=O)Cc3cn(C)c4ccccc34)ccc2O[C@@H]1CN(C)Cc1ccc(C(=O)O)cc1	i	i	i	i
COc1ccc2ccc(=O)oc2c1CC(O)C(C)(C)O (stereo not drawn)	i	i	i	i
C[C@@H]1CN([C@@H](C)CO)C(=O)c2cc(NS(=O)(=O)c3ccc(Cl)cc3)ccc2O[C@@H]1CN(C)C(=O)Nc1ccc2c(c1)OCO2	i	i	i	i
C[C@H]1CN([C@@H](C)CO)C(=O)c2cccc(NC(=O)Nc3ccccc3)c2O[C@@H]1CN(C)Cc1ccc(Oc2ccccc2)cc1	/	i	i	i
Cc1noc(C)c1S(=O)(=O)Nc1ccc2c(c1)C(=O)N([C@@H](C)CO)C[C@@H](C)[C@H](CN(C)C(=O)NC(C)C)OCCCC[C@H](C)O2	i	i	i	i
C[C@@H]1CCCCO[C@H](CN(C)Cc2ccc3c(c2)OCO3)[C@H](C)CN([C@@H](C)CO)C(=O)c2cc(NC(=O)CCCN(C)C)ccc2O1	i	i	i	i
C[C@@H]1CN([C@@H](C)CO)C(=O)Cc2cc(NC(=O)Nc3ccc(C(F)(F)F)cc3)ccc2O[C@H]1CN(C)CC1CC1	i	i	i	i
COCCOC(=O)N1C(=O)[C@@]2(c3ccccc31)[C@H](c1ccc(OCCO)cc1)N1[C@H](c3ccccc3)[C@H](c3ccccc3)OC(=O)[C@H]1[C@@H]2C(=O)Nc1nc2ccccc2s1	/	i	i	i
Cc1cccc(C)c1N(CC(=O)Nc1ccc(Br)cc1)S(C)(=O)=O	i	i	i	i
CN1CCN(C(=O)C2=C[C@@H](c3ccc(C(F)(F)F)cc3)C[C@@H](OCc3ccc(CO)cc3)O2)CC1	i	i	i	i
CNC[C@H]1Oc2ccc(NC(=O)c3ccncc3)cc2CC(=O)N([C@H](C)CO)C[C@H]1C	i	i	i	i
C[C@@H]1CCCCO[C@@H](CN(C)C(=O)CCCN(C)C)[C@H](C)CN([C@H](C)CO)C(=O)c2cc(N(C)C)ccc2O1	i	i	i	i
C[C@@H]1CN([C@@H](C)CO)C(=O)c2cc(NC(=O)Cc3cn(C)c4ccccc34)ccc2O[C@@H]1CN(C)C(=O)Nc1ccccc1	i	i	i	i
Clc1ccc2ncnc(NCc3ccc4c(c3)OCO4)c2c1	/	i	i	i
CC1(C)NC(=O)N(CCCOc2ccccc2CO)C1=O	i	i	i	i
Cc1ccc(S(=O)(=O)N(C)C[C@@H]2Oc3ccc(NC(=O)NC4CCCCC4)cc3CC(=O)N([C@H](C)CO)C[C@@H]2C)cc1	/	i	i	i
Cc1cccc(CN(C)C[C@@H]2Oc3ncc(-c4ccccc4)cc3C(=O)N([C@H](C)CO)C[C@@H]2C)c1	i	i	i	i
CCc1cc2c(=O)n(CC(=O)Nc3ccccc3OC)cnc2s1	i	i	i	i
CNC[C@H]1Oc2c(NC(=O)Nc3ccccc3)cccc2C(=O)N([C@H](C)CO)C[C@H]1C	i	i	i	i
C[C@@H]1CN([C@H](C)CO)C(=O)c2cccc(NC(=O)C3CCOCC3)c2O[C@@H]1CN(C)S(=O)(=O)c1cccs1	i	i	i	i
Cc1noc(C)c1S(=O)(=O)N(C)C[C@@H]1Oc2ccc(NC(=O)Nc3ccccc3)cc2C(=O)N([C@@H](C)CO)C[C@@H]1C	i	i	i	i
COc1ccccc1NC(=O)N(C)C[C@H]1OCc2cn(nn2)CCCC(=O)N([C@H](C)CO)C[C@H]1C	i	i	i	i
C[C@@H]1CCCCO[C@@H](CN(C)Cc2ccccc2)[C@@H](C)CN([C@@H](C)CO)C(=O)c2cc(NC(=O)CCCN(C)C)ccc2O1	i	i	i	i
C[C@H]1CCCCO[C@H](CN(C)C)[C@@H](C)CN([C@@H](C)CO)C(=O)c2cc(NC(=O)Nc3ccc(C(F)(F)F)cc3)ccc2O1	i	i	i	i
C[C@@H]1CCCCO[C@@H](CN(C)C(=O)Nc2ccc3c(c2)OCO3)[C@@H](C)CN([C@H](C)CO)C(=O)c2cc(NS(C)(=O)=O)ccc2O1	i	i	i	i
NC(=O)CC1C(=O)N(c2ccc(Cl)cc2)C(=S)N1Cc1cccnc1 (stereo not drawn)	i	i	i	i
CCN(CC)CC1CCN(c2ncc3ncnc(Nc4ccc(F)c(Cl)c4)c3n2)CC1	i	i	i	i
CNC[C@@H]1OCCCC[C@@H](C)Oc2ccc(NC(=O)c3ccncc3)cc2C(=O)N([C@H](C)CO)C[C@H]1C	i	i	i	i
Cc1ccc(C)c(NC(=O)Cn2cc([N+](=O)[O-])cn2)c1	i	i	i	i
C[C@@H]1CN([C@@H](C)CO)C(=O)CCCn2cc(nn2)CO[C@H]1CN(C)Cc1ccncc1	i	i	i	i
C[C@H](CO)N1C[C@H](C)[C@H](CN(C)S(=O)(=O)c2cccs2)Oc2ncc(-c3ccccc3)cc2C1=O	i	i	i	i
Cc1ccccc1NC(=O)CSCCO	i	i	i	i
COc1ccc(CCNC(=S)Nc2ccc(-c3nc4ccc(C)cc4s3)cc2)cc1OC	i	i	i	i
COC(=O)c1cn(C[C@H](Cc2ccccc2)NC(=O)Nc2ccccc2)nn1	/	i	i	i
Cc1noc(C)c1NC(=O)Nc1cccc2c1O[C@H](CN(C)S(=O)(=O)c1cccs1)[C@H](C)CN([C@@H](C)CO)C2=O	i	i	i	i
C[C@@H]1CN([C@@H](C)CO)C(=O)c2cccc(NC(=O)c3nc4ccccc4s3)c2O[C@@H]1CN(C)C(=O)NC1CCCCC1	i	i	i	i
O=C(O)CCCC(=O)Nc1ccc([N+](=O)[O-])cc1	i	i	i	i
Cc1noc(C)c1S(=O)(=O)Nc1ccc2c(c1)C(=O)N([C@H](C)CO)C[C@@H](C)[C@H](CN(C)C(=O)NC(C)C)OCCCC[C@@H](C)O2	i	i	i	i
COc1cccc(Nc2nc(C3(C)CC4(CC(C)OC4=O)C(=O)O3)cs2)c1 (stereo not drawn)	i	i	i	i
c1cnc2c(OCc3nc4ccccc4[nH]3)cccc2c1	i	i	i	i
C[C@@H]1CN([C@@H](C)CO)C(=O)c2cc(NC(=O)Nc3ccc4c(c3)OCO4)ccc2O[C@@H]1CN(C)S(=O)(=O)c1cccs1	i	i	i	i
COc1cccc(CNc2nn[nH]n2)c1OC	i	i	i	i
COCCOC(=O)N1C(=O)[C@@]2(c3ccccc31)[C@H](c1ccc(O)cc1)N1[C@H](c3ccccc3)[C@H](c3ccccc3)OC(=O)[C@H]1[C@@H]2C(=O)N1CCN(c2ncccn2)CC1	i	i	i	i
C[C@H]1CN([C@@H](C)CO)C(=O)Cc2cc(NS(=O)(=O)c3ccccc3)ccc2O[C@@H]1CN(C)C(=O)Nc1cccc2ccccc12	i	i	i	i
COc1ccc(C(=O)CSc2ncnc3sc4c(c23)CCCC4)cc1	i	i	i	i
O=C(NC(=S)Nc1ccccc1-c1nc2ccccc2s1)c1ccco1	i	i	i	i
O=C(O)C1CC=C(Cl)CC1C(=O)Nc1ccc(Br)cc1 (stereo not drawn)	i	i	i	i
CN(C)C(=O)[C@@]1(CCS(=O)(=O)c2ccccc2)N=C(c2ccc(OCCCO)cc2)O[C@H]1c1ccccc1	i	i	i	i
CC(C)NC(=O)N(C)C[C@@H]1Oc2ccc(NC(=O)Nc3ccccc3)cc2C(=O)N([C@@H](C)CO)C[C@H]1C	i	i	i	i
C[C@@H]1CN([C@H](C)CO)C(=O)c2cc(NC(=O)C3CC3)ccc2O[C@H]1CN(C)Cc1ccc(-c2ccccc2)cc1	/	i	i	i
O=C1c2ccccc2C(=O)N1OS(=O)(=O)c1cccc2cccnc12	i	i	i	i
C[C@@H]1CCCCO[C@H](CN(C)C)[C@H](C)CN([C@@H](C)CO)C(=O)c2cc(NS(=O)(=O)c3cn(C)cn3)ccc2O1	i	i	i	i
COc1ccc(CN(C)C[C@@H]2Oc3ccc(NC(=O)NC4CCCCC4)cc3C(=O)N([C@H](C)CO)C[C@H]2C)cc1	i	i	i	i
C[C@H]1CN([C@@H](C)CO)C(=O)c2cccc(NC(=O)C3CCOCC3)c2O[C@@H]1CN(C)C(=O)Nc1cccc2ccccc12	i	i	i	i
CNC[C@H]1Oc2ccc(NC(=O)Nc3ccccc3)cc2CC(=O)N([C@H](C)CO)C[C@@H]1C	i	i	i	i
C[C@@H]1CCCCO[C@H](CN(C)C(=O)Nc2ccc(C(F)(F)F)cc2)[C@H](C)CN([C@H](C)CO)C(=O)c2cc(NS(C)(=O)=O)ccc2O1	i	+	i	i

Given field by field: part of the list above
COC(=O)c1cn(C[C@H](Cc2ccccc2)NC(=O)Nc2ccccc2)nn1
  ID4 binder: /; c-Myc SMM: i; STAT3 SMM: i; p53 mut binder: i
Cc1noc(C)c1NC(=O)Nc1cccc2c1O[C@H](CN(C)S(=O)(=O)c1cccs1)[C@H](C)CN([C@@H](C)CO)C2=O
  ID4 binder: i; c-Myc SMM: i; STAT3 SMM: i; p53 mut binder: i
C[C@@H]1CN([C@@H](C)CO)C(=O)c2cccc(NC(=O)c3nc4ccccc4s3)c2O[C@@H]1CN(C)C(=O)NC1CCCCC1
  ID4 binder: i; c-Myc SMM: i; STAT3 SMM: i; p53 mut binder: i
O=C(O)CCCC(=O)Nc1ccc([N+](=O)[O-])cc1
  ID4 binder: i; c-Myc SMM: i; STAT3 SMM: i; p53 mut binder: i

Remaining list, next part:
SMILES	ID4 binder	c-Myc SMM	STAT3 SMM	p53 mut binder
COc1ccc(S(=O)(=O)NCc2cccnc2)c(C)c1C	i	i	i	i
COc1ccc(S(=O)(=O)Nc2cccc3c2O[C@H](CN(C)CC2CC2)[C@H](C)CN([C@@H](C)CO)C3=O)cc1	i	i	i	i
Cc1noc(C)c1NC(=O)N(C)C[C@@H]1OCCCC[C@@H](C)Oc2ccc(NS(=O)(=O)c3cn(C)cn3)cc2C(=O)N([C@H](C)CO)C[C@@H]1C	i	i	i	i
C[C@@H]1CN([C@H](C)CO)C(=O)c2cc(NS(=O)(=O)c3cn(C)cn3)ccc2O[C@@H](C)CCCCO[C@@H]1CN(C)C(=O)c1ccccc1	i	i	i	i
N#CC(C#N)Cc1ccc(O)cc1	i	i	i	i
Cc1sc2nc3scc(CC(=O)NCCO)n3c(=O)c2c1C	i	i	i	i
CC(NS(=O)(=O)c1ccccc1)C(=O)Nc1ccccc1F (stereo not drawn)	i	i	i	i
CC1(C)CC[C@]2(C(=O)OC3OC(CO)C(O)C(O)C3O)CC[C@]3(C)C(=CCC4[C@@]5(C)CC[C@H](OC6OC(C(=O)O)C(O)C(O)C6O)C(CO)(CO)C5CC[C@]43C)[C@@H]2C1 (stereo partly drawn)	/	i	i	i
O=C(CNS(=O)(=O)c1ccccc1)Nc1ccc(Cl)c(C(F)(F)F)c1	i	i	i	i
CNC[C@H]1Oc2ccc(NC(=O)CCC(F)(F)F)cc2CC(=O)N([C@@H](C)CO)C[C@@H]1C	i	i	i	i
C[C@@H]1CN([C@H](C)CO)C(=O)c2cc(N(C)C)ccc2O[C@@H](C)CCCCO[C@@H]1CN(C)C(=O)C1CCCCC1	i	i	i	i
C[C@H]1CN([C@@H](C)CO)C(=O)Cc2cc(NC(=O)CCN3CCOCC3)ccc2O[C@@H]1CN(C)C	i	i	i	i
C[C@@H]1CCCCO[C@H](CN(C)C(=O)Nc2ccccc2)[C@@H](C)CN([C@H](C)CO)C(=O)c2cc(NS(C)(=O)=O)ccc2O1	i	i	i	i
O=C(Nc1c(Cl)cc(Cl)cc1C(=O)NCc1ccco1)c1cccc([N+](=O)[O-])c1	i	i	i	i
C[C@H](CO)N1C[C@H](C)[C@@H](CN(C)C(=O)Nc2cccc3ccccc23)OCCCC[C@H](C)Oc2ccc(N(C)C)cc2C1=O	i	+	i	i
C[C@H]1CCCCO[C@@H](CN(C)C)[C@@H](C)CN([C@@H](C)CO)C(=O)c2cc(NC(=O)C3CCCCC3)ccc2O1	i	i	i	i
C[C@H](CO)N1C[C@H](C)[C@H](CN(C)Cc2ccncc2)Oc2ccc(NC(=O)Cn3cnnn3)cc2C1=O	i	i	i	i
C[C@H](CO)N1C[C@H](C)[C@@H](CN(C)Cc2ccc(C(F)(F)F)cc2)Oc2c(NC(=O)c3cnccn3)cccc2C1=O	i	i	i	i
C[C@@H]1CN([C@H](C)CO)C(=O)c2cccc(NC(=O)Nc3cccc4ccccc34)c2O[C@@H]1CN(C)Cc1ccncc1	i	i	i	i

3 entries already listed, arranged by number of heavy atoms, rising.
SMILES	ID4 binder	c-Myc SMM	STAT3 SMM	p53 mut binder
CC(NS(=O)(=O)c1ccccc1)C(=O)Nc1ccccc1F (stereo not drawn)	i	i	i	i
C[C@H]1CN([C@@H](C)CO)C(=O)Cc2cc(NC(=O)CCN3CCOCC3)ccc2O[C@@H]1CN(C)C	i	i	i	i
C[C@H]1CCCCO[C@@H](CN(C)C)[C@@H](C)CN([C@@H](C)CO)C(=O)c2cc(NC(=O)C3CCCCC3)ccc2O1	i	i	i	i

Some of the compounds tested, so the mix of outcomes need not match the whole.
